PINK1 modulator: modulators of PINK1 expression; PINK1 immunofluorescence, high-content cytometry, 24 h; Potency, µM (doses to about 76.6 µM), for the others: at the highest dose activation (PINK1 increase), actives largely listed as activators; 410,000 compounds, 0.2% hits; AID 624263; active = well fitted activation curve with a large enough effect; inconclusive = small, poorly fitted or top-dose-only effect; inactive = flat fitted curve, though single readings scatter; cell line not stated here;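 note: potency is the fitted concentration of half-maximal effect; % of control where 0% means no effect; nearly all actives have a fitted effect of over 65% in size; a mitochondrial uncoupler was the plate control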
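Stable cell line, 250 cells/well, 12 h attachment; compounds pinned at 5 concentrations, 24 h; CCCP control. Fixed with nuclear dye, primary antibodies 12 h at 10 degrees C, secondary plus cell stain; laser-scanning cytometer read.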
TRPML1 ag: human mucolipin-1 channel agonism; Q9GZU1; AID 624414; TRPML1-expressing cells, Ca2+ dye fluorescence, FDSS; host cell line not named in the record; reference of the full effect not given here; activation, % (no concentration beside the values); 410,000 compounds, 0.12% hits; in the data active = activation above about 50%; inconclusive = about 30% to 50%; inactive = below about 30%; note: 0% is about no effect; the text of the record puts the active cut at 80%
Target sequence (Q9GZU1 whole entry, looked up): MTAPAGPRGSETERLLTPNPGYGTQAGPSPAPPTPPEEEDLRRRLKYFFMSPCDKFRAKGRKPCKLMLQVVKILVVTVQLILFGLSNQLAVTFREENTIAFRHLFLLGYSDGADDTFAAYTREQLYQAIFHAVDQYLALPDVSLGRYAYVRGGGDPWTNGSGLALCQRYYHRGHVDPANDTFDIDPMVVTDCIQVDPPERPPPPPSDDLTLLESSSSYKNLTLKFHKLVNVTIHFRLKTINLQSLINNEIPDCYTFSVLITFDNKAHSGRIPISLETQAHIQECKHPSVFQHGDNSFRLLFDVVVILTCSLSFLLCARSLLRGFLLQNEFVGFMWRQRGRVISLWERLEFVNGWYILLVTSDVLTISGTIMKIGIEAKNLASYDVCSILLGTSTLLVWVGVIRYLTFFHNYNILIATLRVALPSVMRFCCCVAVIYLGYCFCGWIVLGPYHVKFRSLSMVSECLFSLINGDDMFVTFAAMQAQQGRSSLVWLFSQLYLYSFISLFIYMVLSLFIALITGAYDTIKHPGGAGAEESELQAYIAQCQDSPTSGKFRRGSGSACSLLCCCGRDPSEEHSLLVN
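Calcium fluorescence on an FDSS kinetic reader gave the read-out. Tet-induced TRPML1-DL cells were plated overnight, dye-loaded (Ca8 with quencher, 45-90 min, room temperature, dark), then read 110 s after compound addition, and again 110 s after 4uM final 54-4 (EC80).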
Starred values were filed as active, the others as inactive; ? = inconclusive; · = no result given.

Each structure is followed by: PINK1 modulator | TRPML1 ag
CC(=O)OC1CC[C@@]2(C)C3CC(=O)[C@]4(C)C(C(C)=O)=CCC4C3CC[C@H]2C1 (stereo not given in full)
  4.3% | ·
CN(Cc1ccco1)c1nc(-c2ccoc2)nc2ccccc12
  2.5% | ·
Cn1ccc(C(=O)NCC2CCC3(CCN(Cc4ccc(F)cc4F)CC3)O2)n1 (stereo not given)
  -0.5% | ·
Cc1nn(C)cc1CNc1nc(C)c(-c2ccn(CC3COc4ccccc4O3)n2)s1 (stereo not given)
  -0.6% | ·
CN(C)C(=O)c1ccc(-c2ccc3ncnc(N4CCNCC4)c3c2)cc1
  -0.7% | ·
CN(C)c1ncc2nc(-c3ccc(Cl)cc3)c(=O)n(Cc3cccs3)c2n1
  6.7% | ·
COC(=O)c1ccccc1C(=O)NCc1nc(N2CCCC2)c2cccc(C)c2n1
  -0.3% | ·
COc1ccc(-n2c(=O)c(-c3cccs3)nc3cnc(N(C)C)nc32)cc1
  14% | ·
COCCn1c(=O)c(C)nc2cnc(OC)nc21
  0.8% | ·
c1cncc(-c2nc(-n3ccnc3)c3ccccc3n2)c1
  1.4% | ·
N#CCCn1c(=O)c(-c2cc(F)cc(F)c2)nc2cnc(OCc3ccccc3)nc21
  4.0% | ·
CNc1cc(-c2ccccc2C(F)(F)F)ncn1
  1.4% | ·
CCCS(=O)(=O)NCc1c(C)ncc2c1CCN(C(=O)c1ccc(F)c(F)c1)C2
  0.2% | ·
COC(=O)N1CCC2(CCN(Cc3ccccc3)CC2)CC1
  0.0% | ·
Cc1cnc(-n2ncc(C(=O)NCC3COCCO3)c2C2CC2)nc1-c1cccs1 (stereo not given)
  1.1% | ·
c1nc(N2CCNCC2)c2cc(-c3ccoc3)ccc2n1
  -0.1% | ·
CCN1CCCC1CNCc1cc2c(OC)c(OC)c(OC)cc2nc1N(C)C (stereo not given)
  0.2% | ·
CC(OC(=O)c1ccc(S(C)(=O)=O)c([N+](=O)[O-])c1)C(=O)NC1C2CC3CC(C2)CC1C3 (stereo not given)
  -0.6% | ·
O=C(Cc1c[nH]c2ccccc12)N1CCC(n2c(C3CCCO3)nc3cc(C(F)(F)F)ccc32)CC1 (stereo not given)
  -0.4% | ·
S=C(NCCCc1cnc[nH]1)NCCCN(Cc1ccccc1)c1ccc(Br)cn1
  5.0% | ·
COc1ccc(-c2nc3cnc(Oc4ccccc4)nc3n(Cc3cccs3)c2=O)cc1
  5.6% | ·
N#Cc1ccc(CN2CC3(CCN(C(=O)c4cnccn4)CC3)C2)cc1
  0.3% | ·
CC1(C)c2[nH]c3ccccc3c2C[C@@H]2C(=O)N(c3cc(F)ccc3F)C(=O)N21
  2.2% | ·
COc1ccc2c(c1)OC(C)CN(CCNC(=O)c1csc(-c3cccs3)n1)C2 (stereo not given)
  -1.1% | ·
Cc1cccc(CNc2ncnc3ccc(-c4ccccc4C#N)cc23)c1
  3.7% | ·
COc1ccccc1CCn1c(=O)c(-c2ccc(Cl)cc2)nc2cncnc21
  0.2% | ·
COc1ccc2[nH]cc(CCNc3ccnc(-c4ccccc4C)n3)c2c1
  1.0% | ·
COc1ccc(-c2coc3cc(O)ccc3c2=O)c(OC)c1O
  3.8% | ·
COCCn1c(=O)c(-c2ccc(Cl)cc2)nc2cnc(N(C)C)nc21
  1.6% | ·
COCC(=O)N1CCC2(CCCN(Cc3ccc(C#N)cc3)C2)CC1
  0.9% | ·
Cn1cc(-c2nc3cnc(Oc4ccccc4)nc3n(C3CC3)c2=O)c2ccccc21
  -0.3% | ·
COc1ccccc1N1CCN(c2nc(CNC(=O)c3ccccc3F)nc3ccccc23)CC1
  1.3% | ·
O=C(c1ccncc1)N1CCC2(CCC(CNC(=O)C3(N4CCOCC4)CCCCC3)O2)CC1 (stereo not given)
  0.8% | ·
C=CCNc1oc(C2CCCC2)nc1C#N
  -0.9% | ·
Cc1oc(-c2ccccc2NC(=O)C2CCC2)nc1CNC(=O)c1ccccn1
  1.6% | ·
COc1ccc(-c2coc3c(O)c(OC)ccc3c2=O)cc1
  0.8% | ·
COc1ccccc1-c1nc(N2CCN(C)CC2)c2ccccc2n1
  0.7% | ·
Cc1nc2cnc(Nc3ccccc3)nc2n(C2CC2)c1=O
  -1.1% | ·
Cc1ccc2cc(CN(C(=O)c3ccc4c(c3)OCO4)C3CC3)c(N(C)C)nc2c1
  0.0% | ·
COc1cccc(Cn2c(=O)c(C)nc3cnc(N4CCOCC4)nc32)c1
  -0.4% | ·
CCCCCCCCCc1ccc(OCCOCCOCCOCCOCCOCCOCCOCCOCCO)cc1
  1.9% | ·
COC(=O)c1cn([C@@H]2C[C@@H](C(=O)N3CCCCCC3)N(Cc3cc4ccccc4s3)C2)nn1
  -0.1% | ·
COc1ccccc1-c1cncnc1NCc1ccccc1
  0.1% | ·
COc1ncc2nc(-c3ccc(F)cc3)c(=O)n(Cc3cccs3)c2n1
  0.0% | ·
N#Cc1ccc(CN2CC[C@@]3(CCCN(S(=O)(=O)c4ccccc4)C3)C2)cc1
  -0.3% | ·
Cc1ccccc1-c1nccc(NCc2cccnc2)n1
  -0.4% | ·
Cc1cc(C)n2nc(C(=O)NCC3Cc4cccc(-c5ccc(S(C)(=O)=O)cc5)c4O3)cc2n1 (stereo not given)
  1.9% | ·
c1cncc(CNc2cc(-c3ccc4c(c3)OCO4)ncn2)c1
  2.2% | ·
CCC1CN(CCC(=O)N2CCCN(C(=O)c3ccco3)CC2)Cc2cc(OC)ccc2O1 (stereo not given)
  0.4% | ·
OC(c1cccnc1)c1ccc2c(c1)CN(Cc1ccc(-c3ccccc3Cl)o1)CCO2 (stereo not given)
  3.2% | ·
COc1ccc2[nH]cc(CCNc3nc(-c4cccc(NS(C)(=O)=O)c4)nc4ccccc34)c2c1
  0.4% | ·
CCNc1ncc2nc(-c3cn(C)c4ccccc34)c(=O)n(CCC#N)c2n1
  0.8% | ·
O=C(c1cccc(F)c1)N1CCC2(CC1)CN(c1ccc(-c3ccccc3)cc1)C2
  -0.7% | ·
CCC1(C2CCN(Cc3cccnc3)CC2)NC(=O)N(CC2COc3ccccc3O2)C1=O (stereo not given)
  -0.1% | ·
COCCn1c(=O)c(-c2cccs2)nc2cncnc21
  0.9% | ·
O=C(c1cccc(F)c1)N1CCC2(CC1)CN(c1cccc(-c3ccccc3)c1)C2
  -0.8% | ·
COCCNc1ncnc2ccc(-c3ccccc3OC)cc12
  0.5% | ·
COCc1c(C(=O)N2CCN(C3CCCC3)CC2)cnn1-c1nccc(-c2cccs2)n1
  -0.2% | ·
COCCC(=O)NCC1Cc2cc(Cl)cc(-c3ccc4[nH]ccc4c3)c2O1 (stereo not given)
  2.0% | ·
Cc1cnc(C)c(-c2cc(F)cc3c2OC(CNC(=O)Cc2ccccc2C)C3)n1 (stereo not given)
  0.0% | ·

(further entries)
Each structure is followed by: PINK1 modulator | TRPML1 ag
Cc1cc(-c2ccnc(-n3ncc(C(=O)N(C)CC(O)c4ccccc4)c3C)n2)c(C)s1 (stereo not given)
  -1.3% | ·
CC(=O)N1CCC2(CCN(Cc3nccs3)CC2)CC1
  -0.9% | ·
COc1ccc(C(=O)N2CCC[C@@]3(CCN(c4ncccn4)C3)C2)cc1
  -0.2% | ·
O=C(c1ccco1)N1CCC2(CC1)CCN(c1ccccc1)CC2
  -0.3% | ·
COc1cc2c3c([nH]c2cc1F)C(=O)NCC3
  -0.7% | ·
CN1CCCN(C(=O)[C@@H]2C[C@@H](Sc3nc4ccccc4[nH]3)CN2Cc2ccc(-c3ccccc3)cc2)CC1
  1.4% | ·
COc1ncc2nc(-c3cccs3)c(=O)n(-c3ccccc3)c2n1
  2.1% | ·
COc1cccc(Nc2ncc3nc(-c4ccc(F)cc4)c(=O)n(C[C@H]4CCCO4)c3n2)c1
  -0.2% | ·
O=S(=O)(c1ccc2c(c1)OCCO2)N1CCN(S(=O)(=O)c2c(F)cc(F)cc2F)CC1
  1.2% | ·
COc1ccc(-c2nc3cnc(Oc4cccc(Cl)c4)nc3n(C3CC3)c2=O)cc1
  8.0% | ·
Cc1nc2cnc(Oc3ccccc3)nc2n(C)c1=O
  0.7% | ·
COCCn1c(=O)cnc2cnc(N(C)C)nc21
  -0.1% | ·
COc1ccc2[nH]cc(CCNc3ncncc3-c3cccc(NS(C)(=O)=O)c3)c2c1
  -0.5% | ·
COC(=O)C1OC(=O)C2OC23[C@]2(C)C(OC(C)=O)CC4C(C)(C)C(=O)CC[C@]4(C)C2CC[C@@]13C (stereo not given in full)
  -0.7% | ·
c1ccc(CNc2ccnc(-c3ccoc3)n2)cc1
  4.1% | ·
CS(=O)(=O)Nc1cccc(-c2ccc3ncnc(NC4CCNCC4)c3c2)c1
  0.9% | ·
Clc1cccc[n+]1CCCCCC[n+]1ccccc1Cl
  · | -0.6
COc1ccc(OC)c(/C=C/c2nc3ccccc3nc2C)c1
  · | 1.6
CN(C)c1ccc(/C=C2/CCCc3c2nc2ccccc2c3C(=O)O)cc1
  · | 5.3
C=C(Br)COC(c1ccco1)[C@H](Cc1ccccc1)NC(=O)OC(C)(C)C (stereo not given in full)
  · | 2.7
COc1ccc(NC(=O)[C@@H]2CC=C[C@@H]3CCN(C4CC4)C(=O)[C@@H]32)cc1
  · | -0.9
CN(C)c1ccc(C=O)cc1Cl
  · | -0.6
CNc1ccc(/C=C/c2ccccc2)cc1
  · | -0.5
Cc1ccc2c(/C=C/c3ccc(N(C)C)cc3)ccnc2c1C
  · | 19
Cc1ccccc1N=C1Nc2ccccc2N[C@]12C[C@H]1CCCC(=O)N3CC[C@@H](C2)[C@@H]13
  · | -0.7
O=C(C[N+]1(CC(O)c2ccccc2)CCCCC1)c1ccccc1 (stereo not given)
  · | 0.0
CCCCCCCCCC[n+]1ccc(/C=C/c2c[nH]c3ccccc23)c2ccccc21
  · | ?
CS(=O)(=O)NCc1ccccc1Br
  · | -0.3
O=C(C[n+]1csc2ccccc21)c1cccc([N+](=O)[O-])c1
  · | -0.7
Cc1c(CCO)sc[n+]1CC(=O)c1ccc(F)cc1
  · | -0.2

Arranged by molecular weight (high to low): part of the list above.
Each structure is followed by: PINK1 modulator | TRPML1 ag
COC(=O)C1OC(=O)C2OC23[C@]2(C)C(OC(C)=O)CC4C(C)(C)C(=O)CC[C@]4(C)C2CC[C@@]13C (stereo not given in full)
  -0.7% | ·
Cc1cc(-c2ccnc(-n3ncc(C(=O)N(C)CC(O)c4ccccc4)c3C)n2)c(C)s1 (stereo not given)
  -1.3% | ·
COc1cccc(Nc2ncc3nc(-c4ccc(F)cc4)c(=O)n(C[C@H]4CCCO4)c3n2)c1
  -0.2% | ·
COc1ccc2[nH]cc(CCNc3ncncc3-c3cccc(NS(C)(=O)=O)c3)c2c1
  -0.5% | ·
Cc1ccccc1N=C1Nc2ccccc2N[C@]12C[C@H]1CCCC(=O)N3CC[C@@H](C2)[C@@H]13
  · | -0.7
COc1ccc(NC(=O)[C@@H]2CC=C[C@@H]3CCN(C4CC4)C(=O)[C@@H]32)cc1
  · | -0.9
O=C(c1ccco1)N1CCC2(CC1)CCN(c1ccccc1)CC2
  -0.3% | ·
COc1ccc(OC)c(/C=C/c2nc3ccccc3nc2C)c1
  · | 1.6
Cc1ccc2c(/C=C/c3ccc(N(C)C)cc3)ccnc2c1C
  · | 19
O=C(C[n+]1csc2ccccc21)c1cccc([N+](=O)[O-])c1
  · | -0.7
CC(=O)N1CCC2(CCN(Cc3nccs3)CC2)CC1
  -0.9% | ·
COCCn1c(=O)cnc2cnc(N(C)C)nc21
  -0.1% | ·
CN(C)c1ccc(C=O)cc1Cl
  · | -0.6

(list continues)
Each structure is followed by: PINK1 modulator | TRPML1 ag
CCCCCCCCCC[n+]1ccc(/C=C/c2c(C)[nH]c3ccccc23)c2ccccc21
  · | 3.4
CCCCCCC[n+]1ccc(/C=C/c2c[nH]c3ccccc23)c2ccccc21
  · | 25
C(=C\c1ccnc2ccccc12)/c1ccc2ccccc2n1
  · | -0.6
CN(C)c1ccc(/C=C/c2cc(N(C)C)nc3ccccc23)cc1
  · | 13
CN(C)c1ccc(/C=C/c2ccnc3ccc4ccccc4c23)cc1
  · | 0.8
CN(C)c1ccc(/C=C/c2ccnc3c(Cl)cccc23)cc1
  · | 54*
COc1ccc(C(=O)C[n+]2cc(Br)cc(Br)c2)cc1
  · | 0.0
O=C(C[n+]1ccncc1)c1ccc2c(c1)CCCC2
  · | -0.7
Clc1ccc(/C=C/c2ccc3ccccc3n2)cc1Cl
  · | -0.2
C1=Cc2ccccc2/C1=C\c1ccc2c(c1)OCO2
  · | 0.0

A portion of the library. The share of hits here may be higher or lower than overall.
